# Beta apoptosis = beta cell apoptosis inhibition; INS-1E cytokine-induced death, ATP luminescence, 48 h; percent of positive-control rescue, neutral wells zero; protection from apoptosis, % (test concentration not listed); 300,000 tested, 0.8% active;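 active means all replicates at 75% or more, or half of them and the mean; inconclusive means half reach 75% but not the mean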;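 further: 0% = cytokine-treated negative control wells and 100% = positive control rescue; higher means more ATP so stronger rescue from cytokine killing; wells of about 40 µL received 100 nL stock; the first replicate is given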
# Bfl-1 A1 inh = inhibitors of the anti-apoptotic protein A1, read as caspase activation; MEF A1-2A-BIM cells, Caspase-Glo 3/7 luminescence, 3 h; percent of clofoctol response, vehicle zero; caspase activation, % (test concentration not listed); 330,000 tested, 0.066% active;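 active means over half of replicate activation scores above 10%, or exactly half above 10 with the replicate mean above 10; inconclusive means replicate mean below 10 yet half the replicates above 10; inactive means over half of replicates below 10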;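 further: wells of about 30 µL received 50 nL stock; many hits fall short of the cut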
# T cruzi repl = blocks replication of Trypanosoma cruzi | inhibition, % (concentration not given with the values) | 300,000 tested, 1.4% active | T. cruzi beta-gal in NIH3T3, luminescence, 90 h;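 active means mean inhibition across valid replicates above about 55%, limit read from the data; inconclusive means mean below that limit but half or more replicates reach it; inactive means mean below it, under half of replicates reach it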;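 further: signal also drops with host cell toxicity which is not excluded here; 0% = plate median of DMSO wells and 100% = zero luminescence signal; higher percent means less beta-gal luminescence so fewer parasites; stock transfer was 50 nL into about 50 µL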
# UCH37 inh = human UCH37 deubiquitinating enzyme inhibition; Q9Y5K5; purified proteasome/UCH37, Ub-AMC cleavage fluorescence; inhibition, % (test concentration not listed); 330,000 tested, 0.33% active; AID 588478;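 active means mean of two replicates above 20%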;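 further: 0% = compound-free wells with enzyme and 100% = wells lacking proteasome; stock transfer was 100 nL into about 20 µL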
# Target sequence (Q9Y5K5 whole entry, looked up): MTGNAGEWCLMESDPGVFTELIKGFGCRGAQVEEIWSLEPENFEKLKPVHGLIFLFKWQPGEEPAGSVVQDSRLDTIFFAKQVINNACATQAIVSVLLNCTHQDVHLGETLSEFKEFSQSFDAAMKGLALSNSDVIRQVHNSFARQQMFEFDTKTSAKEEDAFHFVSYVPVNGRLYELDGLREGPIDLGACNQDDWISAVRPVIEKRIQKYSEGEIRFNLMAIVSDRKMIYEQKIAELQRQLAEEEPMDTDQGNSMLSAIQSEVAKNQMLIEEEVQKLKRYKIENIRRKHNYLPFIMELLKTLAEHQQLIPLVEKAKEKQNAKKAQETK
#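 Assay system: Proteasome-bound UCH37. Buffer or medium: pH 7.4 Tris-HCl (50 mM) with ovalbumin, ATP-MgCl2, DTT. Incubation: 30 min preincubation with enzyme, 25 min cleavage at room temperature. Measured by: fluorescence, ex 355 nm, em 460 nm. Read-out basis: percent inhibition. Control set: wells without proteasome as full block, compound-free enzyme plus substrate as uninhibited.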
# Calb FLC = C. albicans growth modulation with fluconazole; C. albicans CaCi-2 (fluconazole-resistant clinical isolate) + fluconazole, Alamar Blue growth, 48 h; growth inhibition, % (test concentration not listed); 300,000 tested, 0.57% active;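 active means most replicates above 75%; inconclusive means exactly half above 75%; inactive means most below 75%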;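 further: all wells also contain fluconazole at 8 µg/ml as a sub-toxic cotreatment; 0% = median of DMSO wells and 100% = median of geldanamycin control wells; wells of about 8 µL received 7.5 nL stock; the first replicate is given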
# Beta2AR agonist = human beta-2 adrenergic receptor agonism by FAP | P07550 | Am2.2-beta2AR cells, FAP receptor internalization, flow cytometry; reference of the scale not given here | response, % (concentration not given with the values) | 340,000 tested, 0.43% active | AID 504454;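 active means response above a set limit, near 3 SD of response in nonfluorescent compounds, cut at about 42% in these data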;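 further: stock transfer was 100 nL into about 11 µL; a reference agonist was the positive control; negative values mostly stem from fluorescent compounds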
# Target sequence (P07550 whole entry, looked up): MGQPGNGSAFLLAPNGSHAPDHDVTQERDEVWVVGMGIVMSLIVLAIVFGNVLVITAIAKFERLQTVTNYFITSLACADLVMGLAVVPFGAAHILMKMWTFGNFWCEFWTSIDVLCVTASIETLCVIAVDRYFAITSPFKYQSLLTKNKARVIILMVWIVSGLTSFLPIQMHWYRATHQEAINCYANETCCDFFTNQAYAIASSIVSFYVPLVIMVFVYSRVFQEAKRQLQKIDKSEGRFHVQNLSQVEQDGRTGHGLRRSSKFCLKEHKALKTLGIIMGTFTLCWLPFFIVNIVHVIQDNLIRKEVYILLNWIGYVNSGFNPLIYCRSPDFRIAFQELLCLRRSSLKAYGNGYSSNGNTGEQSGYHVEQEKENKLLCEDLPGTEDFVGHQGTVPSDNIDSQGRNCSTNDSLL
# RanGTP-Impb inh = inhibitors of RanGTP-importin-beta interaction, primary screen, biochemical, FRET, CFP-Ran, YFP-importin-beta, homogeneous; cell-free CFP-Ran/YFP-importin-beta FRET ratio; inhibition, % (test concentration not listed); 300,000 tested, 1.1% active;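 active means most replicates above 15%; inconclusive means exactly half above 15%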;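 further: 0% = DMSO wells and 100% = Ran loaded with GDP instead of GTP; wells of about 40 µL received 100 nL stock; the first replicate is given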
# LANA-H2A inh = blocks KSHV LANA binding to histone H2A/H2B; Q9QR71; cell-free LANA-H2A/H2B peptide, fluorescence polarization; inhibition, % (no concentration beside the values); 320,000 tested, 0.6% active; AID 2629; in the data active means inhibition mostly above about 10%, no sharp cut-off; inactive means mostly below about 6.7%;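 further: stock transfer was 7.5 nL into about 10 µL; 0% = median of vehicle wells and 100% = median of positive control wells; one replicate is shown; the record names a cut of 25% in any replicate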
# Active calls of the source: *; ? = inconclusive; / = not tested or not shown.
SMILES,Beta apoptosis,Bfl-1 A1 inh,T cruzi repl,UCH37 inh,Calb FLC,Beta2AR agonist,RanGTP-Impb inh,LANA-H2A inh
COc1ccc(-c2csc(NC(C)c3nc4cc(Cl)c(N5CCCCC5)cc4n3CCOCCO)n2)cc1 (configuration not stated),-2,-0.2,20,0.7,-7,-5,2.3,4.0
Cc1cccc(OCC(=O)Nc2ccc(S(=O)(=O)Nc3onc(C)c3C)cc2)c1C,-2,-1.2,-21,5.9,-3,-8,3.2,-13
O=C(NCCc1ccc(Cl)cc1)c1ccc2[nH]c(=O)c(=O)[nH]c2c1,1,1.6,-1,-83,-6,4,-3.3,0.5
CC(NC(=O)CN1c2cccc3cccc(c23)S1(=O)=O)c1ccc(S(N)(=O)=O)cc1 (configuration not stated),4,-1.3,-9,-43,8,9,2.5,5.7
Cc1ccc(NC2=C(Cl)C(=O)c3ccccc3C2=O)cc1,3,-1.0,-29,2.1,19,35,-2.6,-234
O=C(c1cnn(-c2ccccc2)c1-n1cccc1)N1CCN(C2CCCCC2)CC1,0,-0.6,0,-0.3,-14,-4,-3.5,4.4
CCN(CC(=O)Nc1ccc(OC)cc1)CC(=O)N1CC(=O)Nc2ccccc21,3,0.5,/,0.9,/,4,/,2.9
COCCN(C(=O)Nc1ccccc1OC)c1nc2ccccc2s1,5,-0.1,38,4.8,2,5,-3.0,3.3
Cc1cc(C(=O)Nc2ccccc2C(=O)O)oc1C,0,-6.4,1,3.6,-5,7,5.5,-0.5
COc1ccc(CCN2CC(C(=O)NCC(c3ccccc3)N(C)C)CC2=O)cc1OC (configuration not stated),-10,1.1,/,0.1,/,-2,/,-1.8
CCN1C(=O)C(CC(=O)NCCc2ccccc2)N(NC(=O)c2cccnc2)C1=S (configuration not stated),-7,0.6,-9,3.0,-7,0,-2.6,-1.1
O=C1[C@H]2[C@@H](c3ccc(Cl)cc3)N3C(=O)N(c4cccc(Cl)c4)C(=O)[C@@]3(Cc3ccccc3)[C@H]2C(=O)N1C1CCCCC1,6,1.3,39,-2.2,10,10,4.6,-0.3
CCOC(=O)CN(Cc1sccc1C)C(=O)Nc1ccc(OC)cc1OC,/,1.5,-7,1.5,-4,-2,-2.7,4.7
Cc1ccc(C)c2[nH]c(=O)c(C(c3nnnn3CCc3ccccc3)N3CCOCC3)cc12 (configuration not stated),-5,0.3,-6,-2.7,14,3,4.3,-1.7
Cc1cc(NC(=O)NCc2ccccc2)c(=O)n(Cc2ccc(F)cc2)c1,7,0.8,2,-53,2,-4,-3.0,-2.1
COc1ccc(-n2c(Cc3cccn3C)nnc2SCC(=O)Nc2ccccc2OC)cc1,-3,-0.1,2,0.4,7,2,-2.1,0.8
CCn1c(=O)cc(N2CCCCC2)[nH]c1=O,-5,1.0,-13,/,-3,2,23*,-2.0
Cc1cc(C)nc(NC(=O)/C=C/c2cccs2)c1,6,-5.6,-23,6.9,4,1,?,-3.2
COc1ccc(CCN(C)C(=O)c2ccc(S(=O)(=O)NCc3ccco3)cc2)cc1OC,-5,-0.4,9,2.0,-5,4,1.6,-3.9
O=C(CCCn1c(SCC(=O)c2ccccc2)nc2ccccc2c1=O)NCC1CCCO1 (configuration not stated),3,0.6,-1,2.7,-27,-8,-1.6,-2.4
CCOc1ccc(CNn2nnnc2N)cc1,-11,-0.1,-4,0.6,10,4,0.5,2.8
CCOc1ccc(C(=O)Nc2cccc([N+](=O)[O-])c2)cc1Br,1,-2.8,22,0.5,-10,4,5.4,3.3
CCc1nnc(NC(=O)CCC(=O)NCc2ccc(C)cc2)s1,-5,0.5,4,1.7,11,-2,4.6,9.8
CCC(C)NC(=O)C1CCCN(S(=O)(=O)c2ccc(-n3cnnn3)cc2)C1 (configuration not stated),-4,0.0,-13,5.2,-6,-1,-16,1.8
CCn1c(Cn2nnc(-c3ccccc3)n2)nnc1SCC(=O)Nc1ccc(C(C)=O)cc1,-1,0.2,10,3.2,-4,-2,-0.6,-0.2
CN(C)c1ccc(CNS(=O)(=O)c2ccc3c(c2)C(C)(C)C(=O)N3C)cc1,-3,-0.5,-11,5.6,5,1,0.6,-0.3
O=C(CSCc1ccc(Cl)cc1)N/N=C/c1ccco1,0,1.1,-17,/,3,0,-2.9,0.7
Cc1ccc2c(c1)cc(CN(Cc1cccs1)C(=O)c1ccco1)c1nnnn12,5,1.0,-2,2.2,-7,-14,-0.4,0.5
CCOc1ccc(N2C(=O)C3CCCN3C2=O)cc1 (configuration not stated),-3,0.1,-2,0.4,6,1,3.0,-2.9
CC(=O)N1CCc2cc(S(=O)(=O)NCCCN3CCC(C)CC3)ccc21,-3,0.4,11,5.0,-1,-2,0.5,3.4
CC(C)OC(=O)/C(C#N)=C/c1c[nH]c2ccccc12,4,1.6,4,3.3,-8,0,-0.4,3.6
Oc1ccccc1/C=N/NC(=S)NC1CC2CC1C1C=CCC21 (configuration not stated),28,0.9,-19,/,2,3,-0.7,-4.2
O=C(CCc1ccc(S(=O)(=O)N2CCOCC2)cc1)Nc1ccccc1F,-1,2.1,/,-0.7,/,-1,/,2.1
O=C(C[C@@H]1C/C=C/CC[C@H](Cc2ccc(F)cc2)C(=O)O[C@H](c2ccccc2)CNC1=O)NCCO,-8,-0.1,/,1.7,/,-3,/,14
CCN(CC)C(=O)c1cccc(NC(=O)CC23CC4CC(CC(C4)C2)C3)c1,-1,0.4,1,3.8,0,-4,2.6,0.6
O=C(NCCC(=O)N1CCCCC1)c1ccccc1Cl,1,2.4,-2,0.3,1,9,?,0.5
O=C(O)C1C2CCC(O2)C1C(=O)Nc1ccc(O)cc1 (configuration not stated),-7,0.1,-10,0.0,7,20,1.5,5.0
CCOC(=O)c1cncc(C#CCOC(=O)Nc2ccc(OC(F)(F)F)cc2)c1,-3,0.0,-5,2.5,-5,8,-8.9,-6.9
O=C(NCCO)/C(=C/c1ccco1)NC(=O)c1ccco1,/,0.2,-2,1.5,-5,-2,?,1.3
COc1ccc(C(=O)Nc2cc(C)on2)c(OC)c1,/,-0.4,-4,1.6,4,-9,2.5,0.8
CCCCNC(=O)Nc1ccc(C2SCCS2)cc1,0,-0.2,5,3.1,-5,7,-1.6,-0.4
Cc1cccc(NC(=S)NCc2ccccc2Cl)c1C,3,0.6,-1,1.3,-19,12,1.3,1.3
Cc1c(Cl)cccc1NC(=S)N1CCCN(Cc2ccc(F)cc2)C1,-7,1.0,25,2.7,-2,5,-4.7,1.2
NC(=O)C[C@H](N)c1cn([C@@H](CC(N)=O)C(=O)N2CCNCC2)nn1,-1,0.2,/,0.5,/,-3,/,3.5
COc1ccc2o/c(=N/NC(=O)c3cccs3)c(C(N)=O)cc2c1,6,-0.7,-25,/,/,6,/,-12
CN(C)CCNc1oc(COc2ccc(-c3ccccc3)cc2)nc1C#N,-4,?,24,6.8,-36,31,-5.2,2.4
O=C(CCNC(=O)c1ccccc1Cl)Nc1nc2ccc(F)cc2s1,-6,-1.7,/,3.8,/,-1,/,1.3
CC(=O)c1sc2nc(CSc3nnnn3-c3ccccc3)[nH]c(=O)c2c1C,4,0.1,-10,-6.7,?,3,0.8,-2.5
CC(C)OCCCN1CN(S(=O)(=O)c2ccccc2)c2nc3ccccc3nc21,-7,-0.1,7,-13,3,-1,2.1,-1.7
CCN(Cc1nc(-c2ccccc2)no1)C(=O)c1ccco1,-5,-0.1,-3,2.8,20,-2,-0.6,3.5
Cc1cc(C)c(NC(=O)CSc2nnc(-c3ccncc3)n2Cc2ccco2)c(C)c1,/,0.1,3,5.0,?,1,-1.1,7.0

# Of the compounds above, these have a halogen:
SMILES,Beta apoptosis,Bfl-1 A1 inh,T cruzi repl,UCH37 inh,Calb FLC,Beta2AR agonist,RanGTP-Impb inh,LANA-H2A inh
COc1ccc(-c2csc(NC(C)c3nc4cc(Cl)c(N5CCCCC5)cc4n3CCOCCO)n2)cc1 (configuration not stated),-2,-0.2,20,0.7,-7,-5,2.3,4.0
O=C(NCCc1ccc(Cl)cc1)c1ccc2[nH]c(=O)c(=O)[nH]c2c1,1,1.6,-1,-83,-6,4,-3.3,0.5
Cc1ccc(NC2=C(Cl)C(=O)c3ccccc3C2=O)cc1,3,-1.0,-29,2.1,19,35,-2.6,-234
O=C1[C@H]2[C@@H](c3ccc(Cl)cc3)N3C(=O)N(c4cccc(Cl)c4)C(=O)[C@@]3(Cc3ccccc3)[C@H]2C(=O)N1C1CCCCC1,6,1.3,39,-2.2,10,10,4.6,-0.3
Cc1cc(NC(=O)NCc2ccccc2)c(=O)n(Cc2ccc(F)cc2)c1,7,0.8,2,-53,2,-4,-3.0,-2.1
CCOc1ccc(C(=O)Nc2cccc([N+](=O)[O-])c2)cc1Br,1,-2.8,22,0.5,-10,4,5.4,3.3
O=C(CSCc1ccc(Cl)cc1)N/N=C/c1ccco1,0,1.1,-17,/,3,0,-2.9,0.7
O=C(CCc1ccc(S(=O)(=O)N2CCOCC2)cc1)Nc1ccccc1F,-1,2.1,/,-0.7,/,-1,/,2.1
O=C(C[C@@H]1C/C=C/CC[C@H](Cc2ccc(F)cc2)C(=O)O[C@H](c2ccccc2)CNC1=O)NCCO,-8,-0.1,/,1.7,/,-3,/,14
O=C(NCCC(=O)N1CCCCC1)c1ccccc1Cl,1,2.4,-2,0.3,1,9,?,0.5
CCOC(=O)c1cncc(C#CCOC(=O)Nc2ccc(OC(F)(F)F)cc2)c1,-3,0.0,-5,2.5,-5,8,-8.9,-6.9
Cc1cccc(NC(=S)NCc2ccccc2Cl)c1C,3,0.6,-1,1.3,-19,12,1.3,1.3
Cc1c(Cl)cccc1NC(=S)N1CCCN(Cc2ccc(F)cc2)C1,-7,1.0,25,2.7,-2,5,-4.7,1.2
O=C(CCNC(=O)c1ccccc1Cl)Nc1nc2ccc(F)cc2s1,-6,-1.7,/,3.8,/,-1,/,1.3

# High-throughput results as filed in PubChem.
